Compound activity (PubChem)
Rango release inh: qHTS Assay for Inhibitors of RanGTP induced Rango (Ran-regulated importin-beta cargo) - Importin beta complex dissociation; Snurportin-1 (Homo sapiens) + GTP-binding nuclear protein Ran (Homo sapiens) + Importin …; Biochemical FRET Rango-importin beta, RanGTP-induced dissociation; Potency, µM (series often up to 46.1 µM), for inactives: at the top dose activity change, negative = inhibition; 0.071% of 340,000 active; active means falling FRET ratio curve, often poorly fitted, with flat reads before Ran was added; inconclusive means other falling curves, or compound fluorescence or quenching; inactive means flat or rising ratio curve;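 note: potency is the fitted concentration of half-maximal effect; % of control where 0% means no effect; nearly all actives have a fitted effect of over 45% in size; -100% = wells without RanGTP and RCC1; the record marks most hits as doubtful in a second field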
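Compounds preincubate 5 min with complex of recombinant Rango and importin beta in PBS with 1 mM DTT. Ran (0.6 uM) loaded with 2 mM GTP plus 0.2 uM RCC1 starts dissociation; FRET is recorded 45 min later.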
Rango-impB inh: qHTS Assay for Inhibitors of Rango (Ran-regulated importin-beta cargo) - Importin beta complex formation; 0.031% of 340,000 active; Importin subunit beta-1 (Homo sapiens), Q14974; Potency, µM (top dose mostly 92.2 µM), for the others: at the top dose inhibition of complex formation; Rango CFP/YFP FRET sensor + importin beta, 45 min; active = rising FRET ratio curve, often small or poorly fitted; inconclusive = mostly compound fluorescence or quenching in the first reads; inactive = flat curves in all reads;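 note: potency is the fitted concentration of half-maximal effect; 0% = DMSO wells and 100% = buffer wells lacking importin beta; nearly all actives have a fitted effect of over 15% in size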
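Inhibition scored from the CFP 486 nm/YFP 530 nm FRET ratio 45 min after adding 0.125 microM importin beta to 50 nM Rango biosensor preincubated 5 min with compound (room temperature, PBS with DTT, Tween-20, BSA). No-importin wells as positive control.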
GLA inh pH 4.5: qHTS Assay for Inhibitors of Human alpha-Galactosidase at pH 4.5 | Alpha-galactosidase A (Homo sapiens), P06280 | purified enzyme, 4-MU-alpha-Gal fluorescence, pH 4.5 | activity change, negative = inhibition, % at 105 µM | 230,000 tested, under 10 active | AID 1467, 2008; inconclusive = small, poorly fitted or top-dose-only inhibition, or a rising curve; inactive = flat fitted curve, though single readings scatter; no compound was filed as active;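 note: 0% = full activity with enzyme and -100% = basal without enzyme; dose as in the result columns while the protocol names 77 µM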
Target sequence (P06280 whole entry, looked up): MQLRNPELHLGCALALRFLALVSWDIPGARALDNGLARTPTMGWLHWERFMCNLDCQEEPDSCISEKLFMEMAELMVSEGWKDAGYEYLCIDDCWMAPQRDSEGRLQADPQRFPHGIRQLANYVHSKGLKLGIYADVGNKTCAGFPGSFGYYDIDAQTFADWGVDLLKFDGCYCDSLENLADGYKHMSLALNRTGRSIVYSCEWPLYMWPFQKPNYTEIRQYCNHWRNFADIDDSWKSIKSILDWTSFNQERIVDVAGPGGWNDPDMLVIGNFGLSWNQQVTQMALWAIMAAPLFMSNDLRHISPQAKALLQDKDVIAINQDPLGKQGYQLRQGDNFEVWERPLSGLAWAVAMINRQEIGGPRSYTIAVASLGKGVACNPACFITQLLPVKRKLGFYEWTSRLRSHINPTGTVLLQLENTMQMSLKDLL
miR-21 reporter: qHTS Assay for Modulators of miRNAs and/orActivators of miR-21 | HeLa miR-21 FLuc reporter, luciferase, 48 h | Potency, µM (highest dose often 38.3 µM), for the others: top-dose reporter change, positive = more light | 340,000 tested, under 10 active | AID 2288, 2010; active = well fitted rising curve with a large enough effect; inconclusive = small, poorly fitted or top-dose-only effect; inactive = no such curve, though single readings can be large or run the other way;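 note: % of control where 0% means no effect; miR-21 action dims this reporter so a rising signal means less miR-21 action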
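Luminescence from a firefly luciferase reporter carrying a miR-21 binding site downstream, stably expressed under a CMV promoter in HeLa cells that make miR-21 endogenously, reports miRNA modulation after 48 h compound exposure up to approximately 40uM final.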
Active calls of the source: *; ? = inconclusive; / = not tested or not shown.

Sequence of screens – Rango release inh	Rango-impB inh	GLA inh pH 4.5	miR-21 reporter
- CCOc1ccc(C2C(C#N)=C(N)Oc3cc(C)n(Cc4ccco4)c(=O)c32)cc1OC (stereo not drawn)
 : -3.9%	-1.7%	-1.9	-9.5%
- CN(CC(=O)Nc1ccccc1C(F)(F)F)C(=O)CSc1nnc(N)s1
 : 24.8%	1.7%	/	/
- COc1ccc(N(CC(=O)Nc2ccc(F)c(F)c2)S(=O)(=O)c2c(C)[nH]c(=O)[nH]c2=O)cc1
 : 9.2%	0.0%	/	0.9%
- COc1ccc(C(=O)NNC(=O)c2cnccn2)cc1[N+](=O)[O-]
 : -1.2%	-0.2%	1.3	0.2%
- O=S(=O)(Cc1ccccc1)N1CCCc2ccccc21
 : 10.3%	?	-1.8	0.8%
- COc1ccccc1N=Nc1[nH]c2ccc(C)cc2c1O
 : 12.8%	-9.4%	3.4	-38.4%
- CCC(=O)Nc1nc(N)n(-c2ccccc2)n1
 : 1.3%	-0.2%	5.8	-2.7%
- O=C(NCCc1ccccc1)C1CC(=O)N(C2CCCC2)C1 (stereo not drawn)
 : -7.4%	-1.0%	/	-1.6%
- COc1ccc(/C=C/C(=O)c2cc(Cl)cc(Cl)c2O)c(OC)c1
 : ?	?	-3.0	-3.1%
- COc1cc(C2NC(=O)NC(C)=C2C(=O)OC(C)(C)C)ccc1OCC(N)=O (stereo not drawn)
 : 0.0%	-2.3%	0.6	-12.3%
- CN(CCc1ccccc1)C1CCCN(S(=O)(=O)c2cccc(F)c2)C1 (stereo not drawn)
 : -21.6%	0.5%	/	-0.2%
- COc1cccc(CNc2ccc3c(c2)CCC3)c1
 : -2.6%	?	-8.6	-47.7%
- CCN(C(=O)CN1CCCC(C)C1)c1c(N)n(Cc2ccccc2)c(=O)[nH]c1=O (stereo not drawn)
 : -0.9%	-1.7%	/	/
- c1nnc(NC2=NCCCCC2)s1
 : -19.3%	2.5%	-3.4	-14.4%
- O=C(O)CCc1nn2c3ccccc3n(Cc3ccccc3)c2nc1=O
 : -2.8%	0.5%	5.0	-3.8%
- CCN1CCCC1CNC(=O)c1ccccc1Cl (stereo not drawn)
 : 12.3%	0.4%	0.6	-1.8%
- Nc1ccc(O)cc1C(=O)OCC(=O)C12CC3CC(CC(C3)C1)C2
 : ?	?	1.5	-22.7%
- COC(=O)c1ccc(/C=N/NC(=O)CC(=O)NCC(C)C)cc1
 : -12.1%	-3.0%	-0.3	-0.7%
- O=C(CSc1nnc(C2CC2)n1-c1ccccc1)Nc1ccc(N2CCOCC2)cc1
 : -20.9%	-3.3%	9.2	0.1%
- Cn1nc(CC#N)c2c(=N)n(N)cnc21
 : 6.6%	-3.3%	/	/
- COc1ccc(CNC(=O)CN2CCN(c3ccc(F)cc3)CC2)cc1
 : 0.3%	-0.4%	/	0.7%
- CC(=O)NS(=O)(=O)c1cccnc1Nc1cccc(Cl)c1C
 : 4.0%	0.4%	-8.1	-12.2%
- COc1ccc(C(CNC(=O)C(CCSC)NC(=O)c2ccccc2Cl)N2CCOCC2)cc1 (stereo not drawn)
 : 6.9%	-2.3%	/	/
- COc1ccc2oc(-c3ccco3)cc(=O)c2c1
 : 11.5%	0.4%	2.3	-45.6%
- Cc1cc(C)c2cc3c(ccn3C3OC[C@H](O)[C@H](O)[C@H]3O)cc2n1 (stereo partly drawn)
 : ?	?	1.2	-3.5%
- COc1cc(C(=O)NCCC(=O)NCCN2CCOCC2)cc(OC)c1OC
 : 16.2%	5.2%	-0.1	0.1%
- N#Cc1c(N)n[nH]c1Cc1cccc2ccccc12
 : 15.3%	-1.0%	/	/
- CCC(=O)Nc1cc2c(C)cc(=O)oc2cc1C
 : -0.2%	0.4%	-3.6	1.2%
- O=C(COC(=O)Cc1n[nH]c(=O)c2ccccc12)Nc1ncc(Cl)cc1Cl
 : 15.3%	4.4%	/	/
- CCCCOC(=O)/C=C\C(=O)NC(N)=O
 : -14.2%	4.4%	1.6	22.4%
- COc1ccc(-n2nc(C(=O)NCC(=O)N3CCCCC3)c3ccccc3c2=O)cc1
 : 8.8%	-1.3%	/	-6.4%
- CC(=O)c1ccccc1C(=O)N1CCCC(C(=O)c2ccc(C(F)(F)F)cc2)C1 (stereo not drawn)
 : 19.1%	-1.7%	/	-23.5%
- Cc1cccc(C(=O)N=c2c(C#N)cc3c(=O)n4cccc(C)c4nc3n2Cc2ccco2)c1
 : ?	?	?	-4.1%
- O=C(COC(=O)/C=C/c1ccc([N+](=O)[O-])cc1)NCC1CCCO1 (stereo not drawn)
 : -1.0%	-5.9%	-12.8	6.4%
- COc1ccc(-c2c(-c3ccc(C#N)cc3)oc(=O)c3cc(OC)c(OC)cc23)cc1
 : -6.6%	-0.6%	/	/
- COc1cc(OC)cc(C(=O)NNC(=O)c2ccc(-n3cncn3)c([N+](=O)[O-])c2)c1
 : -22.9%	0.0%	/	/
- Cc1cccc(NC(=O)CC23CC4CC(C2)CC(n2nnc(C)n2)(C4)C3)c1
 : 4.3%	0.0%	-3.4	-10.2%
- COc1ccc(N2CCN(CC(=O)NC(=O)NCc3ccco3)CC2)cc1
 : 0.2%	4.6%	-11.4	-2.5%
- O=C(NCc1ccco1)C(C(=O)c1ccc(F)cc1)n1ccccc1=O (stereo not drawn)
 : -7.4%	-5.6%	0.0	2.9%
- O=C1C2C3C=CC(C3)C2C(=O)N1c1ccncc1 (stereo not drawn)
 : -12.2%	0.1%	4.3	0.8%
- CCN(CC)C(=O)CSc1nnc(CCN)o1
 : -1.8%	4.7%	-0.6	-3.0%
- CCOc1cccc(OCCCNCCCOC)c1
 : -3.3%	-1.9%	1.5	-1.5%
- CC(=O)N1CC2(NC(=O)c3ccccc3N2)c2ccccc21 (stereo not drawn)
 : -3.0%	-0.1%	-0.2	0.5%
- Cc1cc(C)nc(NS(=O)(=O)c2ccc(NC(=O)CN3C(=O)c4ccccc4C3=O)cc2)n1
 : /	/	-0.5	-1.5%
- N/C(=N\OC(=O)c1ccc(Cl)cc1)c1cccnc1
 : ?	2.5%	-0.7	-64.5%
- c1ccc(N2CCN(C3CC4CCC3C4)CC2)cc1 (stereo not drawn)
 : -5.3%	-0.6%	/	-3.6%
- O=C(NCC(=O)N1CCN(S(=O)(=O)/C=C/c2ccccc2)CC1)c1ccccc1F
 : -6.5%	-4.0%	-11.8	2.8%
- O=[N+]([O-])c1ccc(S(=O)(=O)NN=Cc2ccc3c(c2)OCO3)cc1
 : -2.6%	7.8%	/	/
- CCCc1nnc(SCC(=O)Nc2ccc(NC(C)=O)cc2)n1-n1cccc1
 : 17.6%	-0.8%	/	/
- Cc1ccc(-n2nc3ccc(NC(=O)c4ccc5c(c4)OCO5)cc3n2)cc1
 : 1.8%	4.1%	8.5	-5.1%
- COCc1ccc(CN2CCC(n3nccc3NC(=O)CCCc3ccccc3)CC2)o1
 : -13.2%	?	/	-3.1%
- CC(OC(=O)CNC(=O)c1ccccc1)C(=O)Nc1ccc(S(=O)(=O)N2CCOCC2)cc1 (stereo not drawn)
 : 0.5%	-1.4%	/	/
- CC1CCN(C(=O)c2ccc3ccccc3c2)CC1
 : -4.5%	-1.3%	/	-53.3%
- O=C(OCC(O)C(O)COC(=O)c1ccccc1)c1ccccc1 (stereo not drawn)
 : 18.5%	-1.0%	-3.4	-7.1%
- CCOC(=O)c1cnc2c(CC)cccc2c1NCCN1CCOCC1
 : -5.3%	-4.1%	/	8.9%
- Cc1ccc(C(C(=O)NC2CCCCC2)N(C(=O)c2csnn2)C2CCCC2)o1 (stereo not drawn)
 : -0.5%	-4.5%	-7.9	4.1%
- Cc1ccc(NC(=O)COC(=O)CCc2ccccc2)c(Cl)c1
 : 3.7%	-2.5%	/	0.5%
- COc1ccc(/C=N/NS(=O)(=O)c2ccccc2)cc1OC
 : -6.0%	4.5%	/	-1.5%
- COc1ccc2[nH]c(=O)c(CN(C(=O)c3cccnc3)c3ccc(C)cc3C)cc2c1
 : 6.8%	2.2%	-5.9	1.1%
- COc1ccc(-c2c(C#Cc3ccsc3)c3cc(-c4ccc(C(N)=O)cc4)ccc3n2C)cc1
 : -1.9%	-1.0%	/	/

Following part.
Sequence of screens – Rango release inh	Rango-impB inh	GLA inh pH 4.5	miR-21 reporter
- COc1ccc(CCNC(=O)c2c(C)noc2C)cc1
 : 5.6%	2.2%	1.1	-3.5%
- CCOc1ccccc1NC(=O)c1ccccc1N(C)S(=O)(=O)c1ccc(C)cc1
 : 4.4%	-1.1%	/	/
- CCc1ccc(NC(=O)C2CCN(S(=O)(=O)c3ccc4c(c3)NC(=O)C(C)S4)CC2)cc1 (stereo not drawn)
 : 3.3%	-1.4%	/	?
- Cc1ccc(NC(=O)COC(=O)C2(CC(=O)NC(C)(C)C)CCCC2)cc1C
 : 9.7%	0.0%	/	/
- CCO[C@@H]1OC(C(=O)N2CCN(Cc3ccccc3)CC2)=C[C@H](c2coc3ccccc3c2=O)[C@H]1CCCO
 : ?	-4.2%	-6.6	7.6%
- Cc1ccc2c(c1)C(C)CC(C)(C)N2C(=O)CN1CCN(C)CC1 (stereo not drawn)
 : -2.3%	1.4%	-3.7	-1.2%
- CCOC(=O)C1(Cc2cccc(Cl)c2)CCCN(C(=O)c2cc(C)on2)C1 (stereo not drawn)
 : -1.1%	-0.6%	/	-32.9%
- COc1cc2c(C(=O)N3CCN(c4cccc(Cl)c4)CC3)cn(C)c(=O)c2cc1OC
 : -1.4%	-0.6%	-0.1	?
- Cc1c(C(=O)c2ccccc2)c2ccccn2c1CCc1ccccn1
 : 5.4%	-1.6%	-5.8	-6.6%
- O=C(c1ccncc1)c1nccn1-c1ccccn1
 : -1.1%	-0.6%	1.6	-0.7%
- Cc1cccc(S(=O)(=O)N2CN(CC3CCCO3)c3nc4ccccc4nc32)c1 (stereo not drawn)
 : 1.3%	1.3%	/	-1.6%
- N#CCCN(Cc1ccccc1)C(=O)Nc1ccc2c(c1)CCO2
 : 4.4%	0.3%	3.6	-5.9%
- Cc1nnc(N/N=C/c2c[nH]c3ccccc23)[nH]c1=O
 : 29.5%	1.7%	4.6	10.7%
- COc1ccccc1NC(=O)C(=O)N(c1cccnc1)C(C(=O)NC(C)(C)C)c1ccccc1F (stereo not drawn)
 : 14.4%	-0.5%	-13.0	-1.5%
- COc1cccc(NC(=O)c2cnc(SCC(=O)NCc3ccc4c(c3)OCO4)n(C)c2=O)c1
 : 0.6%	3.3%	/	/
- Cc1ccc(Nc2nc(CSc3nnc(-c4ccc(F)cc4)n3C)cs2)cc1
 : 9.2%	-1.6%	2.8	-19.4%
- O=C1CC(C(=O)N2CCN(c3ccccn3)CC2)CN1Cc1ccccc1Cl (stereo not drawn)
 : -5.0%	2.0%	/	/
- CC(=O)c1sc(-c2ccc(F)cc2)cc1NS(=O)(=O)c1ccc(C)cc1
 : -3.9%	-3.8%	-3.6	-5.6%
- COC(=O)[C@H](CC(C)C)NC(=O)NCCC1=CCCCC1
 : 1.1%	-4.5%	-0.1	-1.0%
- CCc1nn(CCCC(=O)N(C)Cc2ccccc2)c(=O)c2cc3occc3n12
 : 0.7%	0.1%	/	-23.1%
- Cc1cc2cc(CN(CC3CCCO3)C(=S)NCc3ccco3)c(=O)[nH]c2cc1C (stereo not drawn)
 : 4.5%	-2.5%	-7.3	-5.8%
- CCN(CC)CCOC(=O)c1cccc(OC)c1
 : 0.5%	-0.1%	5.0	-5.5%
- COc1ccc(/C=C/C(=O)c2ccc(Cl)cc2)c(OC)c1
 : ?	?	-14.7	-49.2%
- COc1ccc([N+](=O)[O-])cc1N(CC(=O)O)S(C)(=O)=O
 : 7.9%	1.1%	5.2	2.2%

An excerpt. The share of hits here may be higher or lower than overall.
